# CtBP-E1A blk: blocks the CtBP interaction with E1A. AID 651724. AlphaScreen GST-E1A/His-CtBP binding, 1536-well; active compounds read low; control for the full effect not named in the record. activity change, % (no concentration beside the values). 340,000 tested, 0.49% active; in the data active means activity change below about -65%; inconclusive means about -30% to -65%; inactive means above about -30%; note: % is set by controls: 0 for no effect and ±100 for the full control effect
#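 Steps: dispense buffer (Tris pH 8.0, NaCl 300 mM, TCEP 1 mM, BSA, Tween 20); add 5X protein mix (GST-E1A, His-CtBP, 125 nM each); pin 23 nL compound; 2 h at 37 °C, dark; add 5X beads (50 ug/mL); 1 h; read.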
# gsp antagonist: gsp mutant antagonism. gsp-mutant cells, cAMP HTRF, 30 min; control for the full effect not named in the record. Potency, µM (doses to about 76.9 µM), inactives show at the highest dose activity change, negative = inhibition, hits mostly inhibitors. 340,000 tested, 0.4% active; active = falling curve of any shape with a large fitted effect; inconclusive = falling curve, mostly with a smaller effect; inactive = flat or rising curve; cell line not stated here;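 note: intracellular cAMP measured with PDE inhibitor Ro 20-1724 present during compound exposure; potency is the fitted concentration of half-maximal effect; % is set by controls: 0 for no effect and ±100 for the full control effect; nearly all actives have a fitted effect of over 65% in size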
#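 Measurement of cellular cAMP by homogeneous time-resolved fluorescence following a 30 min compound exposure at 37C. The PDE inhibitor […] was present throughout; the assay buffer was DPBS with 0.05% BSA and 0.005% Tween 20.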
# Menin MLL FP FL: displaces fluorescein MLL peptide from human menin; 290,000 tested, under 10 active; AID 1766; FP activity change, % at 61.4 µM; Fluorescence polarization, fluorescein-MLL peptide displacement from menin; inconclusive = falling polarisation curve, or a change in total fluorescence; inactive = total fluorescence flat and polarisation flat or rising; no compound was filed as active; the % refers to the polarisation; negative = inhibition;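 note: % of control where 0% means no effect; inhibitors lower the polarisation; unlabelled MLL peptide was the positive control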
# Sfp inh: inhibitors of Bacillus subtilis Sfp phosphopantetheinyl transferase; 310,000 tested, 3.5% active; Q9F4F7; Potency, µM, for the others: max response, negative = inhibition, most hits filed as inhibitors; Biochemical Sfp PPTase activity, qHTS; active = well fitted inhibition curve with a large enough effect; inconclusive = small, poorly fitted or top-dose-only effect, or another doubt; inactive = no such curve, though single readings can be large or run the other way;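 note: the enzyme is Sfp with the accession as filed and its product quenches rhodamine fluorescence; potency is the fitted concentration of half-maximal effect; 0% = enzyme reaction without inhibitor and -100% = no enzyme wells; top concentration of the series not given in the record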
#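 Sfp 15 nM + cpd, 15 min RT; start w/ rhodamine-CoA 5 uM, BHQ-2-YbbR 12.5 uM (final); 50 mM Hepes pH 7.6, 10 mM MgCl2, 0.01% NP-40, 0.01% BSA; read 525/598 nm at 0 and 30 min.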
# gsp ag: activates gsp, the McCune-Albright syndrome mutation; 340,000 tested, 0.13% active; Potency, µM (top dose mostly 76.9 µM), without a hit: top-dose activation (cAMP increase), most hits filed as activators; gsp mutant cells, cAMP HTRF, 30 min; control for the full effect not named in the record; AID 624287; active = well fitted activation curve with a large enough effect; inconclusive = small, poorly fitted or top-dose-only effect, or another doubt; inactive = no such curve, though single readings can be large or run the other way; cell line not stated here;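 note: phosphodiesterase inhibitor Ro 20-1724 added with compounds to block cAMP breakdown; potency is the fitted concentration of half-maximal effect; nearly all actives have a fitted effect of over 60% in size; about a fifth of the inactives were tested at one dose only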
#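 Cells stably selected in G418 were plated at 2000/well, grown 16-24 hr, then given compounds in DMSO with the PDE inhibitor […] (300 uM solution added) for 30 min at 37C; cAMP was read by HTRF.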
# TRPV1 potentiator: enhances activation of the human vanilloid receptor TRPV1 | 320,000 tested, 0.02% active | Q8NER1 | TRPV1-expressing cells, Fluo-8 calcium influx, capsaicin EC20 potentiation; host cell line not named in the record; control for the full effect not named in the record | AID 540277 | potentiation, % at 8.33 µM; active means potentiation above 80%; inconclusive means 30% to 80%; inactive means below 30%; note: 0% is about no effect
# Target sequence (Q8NER1 whole entry, looked up): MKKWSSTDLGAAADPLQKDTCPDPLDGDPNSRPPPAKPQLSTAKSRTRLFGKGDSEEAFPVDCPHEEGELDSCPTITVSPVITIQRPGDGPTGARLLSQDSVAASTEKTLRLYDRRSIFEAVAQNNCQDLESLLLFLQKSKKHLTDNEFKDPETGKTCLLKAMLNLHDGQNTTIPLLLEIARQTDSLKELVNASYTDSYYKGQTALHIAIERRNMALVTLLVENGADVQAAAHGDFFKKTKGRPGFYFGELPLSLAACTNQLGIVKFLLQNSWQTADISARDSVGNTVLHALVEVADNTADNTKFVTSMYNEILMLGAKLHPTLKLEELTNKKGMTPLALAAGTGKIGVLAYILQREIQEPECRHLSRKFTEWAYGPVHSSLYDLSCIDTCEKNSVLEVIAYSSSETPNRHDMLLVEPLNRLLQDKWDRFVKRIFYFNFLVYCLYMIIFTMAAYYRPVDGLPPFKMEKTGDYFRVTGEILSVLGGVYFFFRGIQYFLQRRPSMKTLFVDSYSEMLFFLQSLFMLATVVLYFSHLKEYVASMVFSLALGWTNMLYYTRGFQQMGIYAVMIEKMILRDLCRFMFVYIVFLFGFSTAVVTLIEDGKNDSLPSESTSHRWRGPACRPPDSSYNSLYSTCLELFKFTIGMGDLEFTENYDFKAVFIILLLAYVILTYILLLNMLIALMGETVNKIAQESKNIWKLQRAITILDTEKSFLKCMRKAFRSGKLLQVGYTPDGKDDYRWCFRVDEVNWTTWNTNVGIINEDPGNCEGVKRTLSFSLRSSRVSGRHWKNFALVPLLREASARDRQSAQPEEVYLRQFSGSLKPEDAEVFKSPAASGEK
#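 Cells expressing TRPV1 were dye-loaded with Fluo-8 and read kinetically: 10 s baseline, 3 min after compound (agonist portion), then 2 min after EC20 capsaicin (allosteric enhancer portion). Calcium-bound dye fluorescence at 480/520 nm.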
# ClpP mod: qHTS Assay for Activators of ClpP; ATP-dependent Clp protease proteolytic subunit (Bacillus subtilis (strain 168)), P80244; purified B. subtilis ClpP, FRET peptide cleavage, 20 min; Potency, µM (titrated, usually from 57.5 µM), for inactives: top-dose activity change, negative = active; 340,000 tested, 1.9% active; active = well fitted falling curve with a large enough effect; inconclusive = small, poorly fitted or top-dose-only effect; inactive = no such curve, though single readings can be large or run the other way; note: potency is the fitted concentration of half-maximal effect; the source files actives as falling curves though it sought activators and does not explain the sign; nearly all actives have a fitted effect of over 65% in size; many hits overshoot -100%
# Target sequence (P80244 whole entry, looked up): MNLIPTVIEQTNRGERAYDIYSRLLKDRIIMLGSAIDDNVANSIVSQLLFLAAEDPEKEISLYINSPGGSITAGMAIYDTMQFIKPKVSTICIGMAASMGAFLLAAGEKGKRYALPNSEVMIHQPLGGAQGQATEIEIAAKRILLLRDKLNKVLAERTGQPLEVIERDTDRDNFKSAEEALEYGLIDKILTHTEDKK
#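 FRET quenching reversal measured ClpP activation: 10 microg/mL B. subtilis ClpP at pH 8 with the FRET-FV decapeptide, read at 430 nm after 320 nm excitation. The 20-min minus 0-min signal was scaled between DMSO/no-enzyme wells and ADEP (5.8 microM final).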
# Numbers without * were called inactive; ? = inconclusive; / = no result given; & = joins results of further samples; [ ] = another dose, or the depositor's remark. Compounds as they come (roughly 5.3% active in at least one column).
entry	SMILES	CtBP-E1A blk	gsp antagonist	Menin MLL FP FL	Sfp inh
1	Cc1nc(CCNC(=O)CC2C(=O)NCCN2Cc2ccccc2)sc1C (centres undefined)	-6.5	3.7%	-1.7	-14.2%
2	CN(CC(=O)Nc1cccc(F)c1)C(=O)c1sccc1-c1ccccc1	4.6	0.2%	/	/
3	CC(=O)Nc1ccc(Cl)cc1C(=O)c1ccc[nH]1	0.8	/	/	/
4	COc1cccc(N2C(=O)C3CCCN3C2c2cccs2)c1 (centres undefined)	-0.4	-3.9%	2.7	-2.1%
5	O=C1CCC(C(=O)O)N1 (centres undefined)	8.3	4.2%	1.1	22.4%
6	CN(CC(=O)Nc1cccc(F)c1)C(=O)c1ccc(-c2cccc(C(F)(F)F)c2)o1	10.4	-24.4%	/	/
7	CCOc1ccc(C(=O)OCC(=O)NC2CCCCCCC2)cc1	0.9	5.8%	/	/
8	Cc1ccc(NC(=O)C2CC(=O)N/C(=N/NC(=O)c3ccc(C)cc3)S2)cc1 (centres undefined)	-22.6	7.9%	2.5	16.3%
9	COc1ccc(-c2noc(CNC(=O)c3ccoc3C)n2)cc1	-5.3	6.9%	0.3	7.7%
10	CCNC(=O)NC(=O)CN(C)c1ccccc1	0.0	11.2%	-2.4	10.2%

entry	gsp ag	TRPV1 potentiator	ClpP mod
1	12.0%	-0.8	-8.7%
2	-3.4%[15.4 µM]	-4.5	/
3	-3.7%	/	0.1%
4	-0.8%	-2.3	/
5	/	4.3	0.0%
6	-14.7%	-4.5	-6.2%
7	-6.7%	-2.1	-1.1%
8	15.3%	5.2	0.6%
9	1.8%	7.8	/
10	12.5%	-4.2	/

# (continued)
entry	SMILES	CtBP-E1A blk	gsp antagonist	Menin MLL FP FL	Sfp inh
11	COc1ccccc1OCC(=O)NCc1ccco1	5.2	10.9%	17.9	4.4%
12	O=C(CSc1nc(-c2ccccc2)cc(=O)[nH]1)Nc1ccc(F)c(F)c1	4.7	-17.3%	-1.5	-10.7%
13	Cc1ccc(C)c(NC(=S)N2CCN(CCO)CC2)c1	-0.1	-13.1%	5.6	16.0%
14	Cc1cc(C)cc(NC(=S)N2CCN(c3ccc(F)cc3)CC2)c1	-8.5	13.3%	9.8	6.8%
15	COc1ccc(-n2ncc3c2CC(C)(C)CC3NC(=O)CCCN2CCCC2=O)cc1 (centres undefined)	1.3	-0.9%	-7.1	16.0%
16	CSc1cc(C)c(OCC(=O)Nc2c(C)nn(C)c2C)c(C)c1	0.3	-4.8%	/	1.9%
17	CCOc1ccccc1/C=C(\C#N)C(=O)NC1CC1	3.8	-8.0%	/	/
18	S=C(c1cccs1)N1CCCC1	7.7	9.3%	0.7	18.0%
19	O=C(Nc1ccc(Br)cn1)c1ccc(Cl)s1	14.0	?	1.4	10.8%
20	COc1ccc(-c2sc3ccc(OC)cc3c2-c2ccc(OCCN3CCOCC3)cc2)cc1	-26.5	-12.7%	/	/

entry	gsp ag	TRPV1 potentiator	ClpP mod
11	?	-12.5	0.7%
12	8.6%	-2.7	-0.6%
13	-25.5%	3.3	1.3%
14	22.8%	-4.3	1.1%
15	5.1%	-4.2	0.2%
16	0.2%	-14.0	0.5%
17	-9.7%	/	0.5%
18	?	-6.9	1.4%
19	23.1%	12.5	/
20	/	/	15.8µM*

# Further results.
entry	SMILES	CtBP-E1A blk	gsp antagonist	Menin MLL FP FL	Sfp inh
21	C#CCn1c(=NC(=O)c2cc(-c3cccs3)nc3ccccc23)sc2cc(S(N)(=O)=O)ccc21	-12.5	?	6.9	2.4%
22	CC(=O)Nc1ccc(S(=O)(=O)N2CCN(c3ccc([N+](=O)[O-])cc3)CC2)cc1	/	?	-2.2	-0.9%
23	c1ccc(-c2nc3c([nH]2)CCc2nonc2-3)cc1	-3.9	4.9%	1.4	16.1%
24	O=C1CCc2nc3ccccc3c(=O)n2N1	1.1	4.7%	-3.2	11.2%
25	O=C(NOCc1cscn1)Nc1ccccc1	0.0	1.8%	/	/
26	CCOC(=O)N1CCN(C(=O)CCS(=O)(=O)c2cc3c(cc2Cl)NC(=O)CO3)CC1	3.7	5.4%	4.1	9.6%
27	CCn1c(CNc2nc(-c3ccccc3)cs2)nnc1SCC(=O)NCc1ccco1	-21.3	-5.4%	5.6	56.2µM*
28	CCc1c(C)c2ccc(OCC(=O)NCC3CCC(C(=O)O)CC3)c(C)c2oc1=O (centres undefined)	-26.6	-6.6%	2.7	14.7%
29	COc1ccccc1NC(=O)C(C)NS(=O)(=O)c1ccc(F)cc1 (centres undefined)	-2.3	13.2%	1.0	1.4%
30	CC(C)=C(NC(=O)c1ccccc1Br)C(=O)NCCc1nc2ccccc2[nH]1	7.3	-0.3%	5.4	-0.8%

entry	gsp ag	TRPV1 potentiator	ClpP mod
21	1.9%	1.5	?
22	-13.3%	-2.4	2.8%
23	1.5%[15.4 µM]	7.9	/
24	1.3%	-4.7	-4.7%
25	2.0%	/	-3.8%
26	?	22.1	1.6%
27	-33.0%[inhibitor]	11.5	0.6%
28	/	4.1	5.0%
29	12.7%	-4.2	1.3%
30	-9.5%[15.4 µM]	-4.9	0.4%

# (listing goes on)
entry	SMILES	CtBP-E1A blk	gsp antagonist	Menin MLL FP FL	Sfp inh
31	CCOc1nc(Nc2ccc(OC)cc2OC)nc(OCC)n1	/	-8.3%	0.4	3.1%
32	O=C(NCc1ccccc1)C(c1ccco1)N(C(=O)c1ccccn1)c1ccccc1 (centres undefined)	24.3	-30.9%	/	6.3%
33	COc1ccc(Cn2c(CCC(=O)Nc3ccc(C)cc3)nc3cccnc32)cc1	-6.8	8.3%	1.5	2.1%
34	CC1CCN(S(=O)(=O)c2ccc(NC(=O)Cc3ccc(S(=O)(=O)N4CCOCC4)s3)cc2)CC1	-3.8	-14.4%	/	/
35	CCN(Cc1ccccc1)C(=O)C1CCN(Cc2ccc(SC)cc2)CC1	13.4	-5.8%	-8.4	7.7%
36	CCOc1ccc(OCCC(=O)OCC(=O)Nc2cc(OCC)c(N3CCOCC3)cc2OCC)cc1	-11.5	-17.1%	/	/
37	CC1CC(C)(C)OC(c2ccc(C(C)C)cc2)O1 (centres undefined)	5.3	16.6%	/	/
38	CCCc1cc(=O)c2ccc(OC/C(C)=N/O)cc2o1	/	0.4%	2.6	18.1%
39	Nc1ccc2oc3ncccc3c(=O)c2c1	-22.4	12.5%	1.5	19.0%
40	COc1cc(Cc2nc3ccc(S(=O)(=O)N4CCOCC4)cc3[nH]2)cc(OC)c1OC	1.6	-1.4%	6.6	0.5%

entry	gsp ag	TRPV1 potentiator	ClpP mod
31	-23.5%	-23.6	-2.1%
32	22.3%[15.4 µM]	3.4	-2.9%
33	6.3%	-11.2	-3.2%&-0.2%
34	-7.2%[15.4 µM]	1.8	/
35	0.0%	3.9	1.3%
36	-27.7%	-10.7	1.2%
37	-27.3%	/	-1.0%
38	4.1%	-16.8	-14.2%
39	12.4%	1.7	-0.8%
40	?	-2.9	-3.7%

# The listing continues.
entry	SMILES	CtBP-E1A blk	gsp antagonist	Menin MLL FP FL	Sfp inh
41	CCN(CC)CCCn1c(=S)[nH]c2ccc(Cl)cc2c1=O	-1.5	-0.1%	1.9	-4.1%
42	Cc1cc(C)n2nc(SCc3nnc(SCCCCl)o3)nc2n1	11.0	-10.0%	-0.9	10.1%
43	COC(=O)Nc1ccc(N2CCOCC2)c(S(=O)(=O)N2CCOCC2)c1	2.1	-3.1%	-0.9	13.1%
44	CC1CN(C(=O)CSc2ncnc3sccc23)CC(C)O1 (centres undefined)	3.8	6.3%	?	12.3%
45	CC(=O)c1c(NCCc2ccccc2)cc(C)oc1=O	-4.9	-8.1%	1.3	3.5%
46	COc1ccc(C(=O)N/N=C/c2cn[nH]c2-c2ccc(OC)cc2OC)cc1	0.4	-15.0%	1.8	1.2%
47	Nn1c(Nc2ccccc2)nc2sc3c(c2c1=O)CCCC3	3.1	-13.1%	-0.1	-15.5%
48	COc1ccccc1CNC(=O)CSc1ccccc1	5.1	-2.4%	-2.7	2.9%
49	CN1CCN(C(=O)c2ccc(-c3ccccc3)cc2)CC1	-2.7	11.5%	-2.6	-2.6%
50	CNC(=O)Nc1ccc(Cl)cc1	-8.9	-7.9%	1.2	2.5%
51	CC[C@H]1C(Nc2ccccc2)C[C@@H]2CCN3C(=O)CC[C@H]1[C@H]23 (some centres undefined)	1.8	2.4%	/	/
52	Cc1nn(-c2cccc(C(F)(F)F)c2)c(Cl)c1/C=N/Nc1cccc(C(=O)O)c1	-5.2	-10.5%	1.8	-14.7%
53	O=C(Cn1cnc2c(NCc3ccccc3)ncnc21)N1CCN(c2ccccn2)CC1	0.5	-8.6%	/	/

entry	gsp ag	TRPV1 potentiator	ClpP mod
41	?	4.4	-6.5%
42	7.7%	-19.8	-2.6%
43	-3.5%	-2.1	1.4%
44	?	4.1	-0.2%
45	-29.9%	-1.3	1.2%
46	-2.4%	0.1	-4.3%
47	-9.5%[15.4 µM]	2.7	-1.2%
48	-4.0%[15.4 µM]	2.1	/
49	19.8%[15.4 µM]	-5.1	31.6µM*
50	-41.5%[inhibitor]	-9.7	-2.2%
51	/	/	-0.7%
52	20.1%	4.6	-3.6%
53	/	/	3.9%

# Taken from the listing for reference:
entry	SMILES	CtBP-E1A blk	gsp antagonist	Menin MLL FP FL	Sfp inh
1	Cc1nc(CCNC(=O)CC2C(=O)NCCN2Cc2ccccc2)sc1C (centres undefined)	-6.5	3.7%	-1.7	-14.2%
2	CN(CC(=O)Nc1cccc(F)c1)C(=O)c1sccc1-c1ccccc1	4.6	0.2%	/	/
3	CC(=O)Nc1ccc(Cl)cc1C(=O)c1ccc[nH]1	0.8	/	/	/
4	COc1cccc(N2C(=O)C3CCCN3C2c2cccs2)c1 (centres undefined)	-0.4	-3.9%	2.7	-2.1%

entry	gsp ag	TRPV1 potentiator	ClpP mod
1	12.0%	-0.8	-8.7%
2	-3.4%[15.4 µM]	-4.5	/
3	-3.7%	/	0.1%
4	-0.8%	-2.3	/

# Compound activity deposited in PubChem BioAssay by National Center for Advancing Translational Sciences (NCATS).
